Bioassay records (PubChem)
MrgX1 antagonist = antagonists of human MrgX1 receptor, primary screen, HEK293 cells, Fluo-4 calcium flux | Mas-related G-protein coupled receptor member X1 (Homo sapiens), Q96LB2 | AID 588676, 2011 | B-score at 10 µM | 310,000 compounds, 1.3% hits | BAM8-22 antagonism; hits give low values;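 active means calcium-response B-score plate-corrected more than 3 library SD below zero, starting fluorescence within 5 deviations, no agonist response on first addition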;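 further: peak minus trough fluorescence over baseline after final BAM8-22 challenge near maximal dose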
Target sequence (Q96LB2 whole entry, looked up): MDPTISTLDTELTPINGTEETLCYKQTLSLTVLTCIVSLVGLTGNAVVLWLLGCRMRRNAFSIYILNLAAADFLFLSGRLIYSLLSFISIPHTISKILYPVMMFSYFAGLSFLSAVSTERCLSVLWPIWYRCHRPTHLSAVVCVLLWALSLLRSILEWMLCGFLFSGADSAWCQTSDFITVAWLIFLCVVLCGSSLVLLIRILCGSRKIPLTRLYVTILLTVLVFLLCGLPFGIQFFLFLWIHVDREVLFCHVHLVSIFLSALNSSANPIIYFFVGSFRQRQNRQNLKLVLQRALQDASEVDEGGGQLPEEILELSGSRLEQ
TRPC4 act = activators of mouse TRPC4 channel, primary screen, Fluo4 calcium, HEK293 TRPC4beta/mu-opioid cells; Short transient receptor potential channel 4 (Mus musculus), Q9QUQ5; Fluo4 calcium fluorescence; hits give high values; B-score at 10 µM; 310,000 compounds, 0.49% hits; AID 2237, 2010;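 active means B-score above 5 SD of library B-scores, and initial fluorescence ratio not above library mean plus 5 SD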;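 further: positive B-score marks a calcium rise read as TRPC4 activation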
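Assay system: HEK293 stable line with TRPC4beta plus mu-opioid receptor; schedule: 45 min room-temperature Fluo4 loading, 110 s read; technique: kinetic Fluo4 calcium fluorescence; evaluation: integrated baseline-normalised fluorescence ratio, converted to per-well B score; controls: buffer (low) and maximal DAMGO (high)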
TRPC6 activator = mouse TRPC6 channel activators, primary screen, cell-based, HEK293, membrane potential dye | Short transient receptor potential channel 6 (Mus musculus), Q61143 | B-score at 10 µM | HEK293-TRPC6 membrane potential dye fluorescence; hits give high values | 310,000 compounds, 0.13% hits;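 active means B-score of the integrated fluorescence ratio above library mean plus 3 SD, and starting fluorescence ratio within library mean plus 5 SD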;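 further: higher score means more depolarization so channel activation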
TRPC4 block = inhibitors of mouse TRPC4 channel, primary screen, Fluo4 calcium, HEK293 TRPC4beta/mu-opioid cells. B-score at 10 µM. 300,000 compounds, 0.39% hits. DAMGO-evoked Fluo4 calcium flux; hits give low values. Short transient receptor potential channel 4 (Mus musculus), Q9QUQ5;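 active means B-score over 3 SD under the library average, no early fluorescence shift, positive overall ratio signal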
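material = TRPC4beta/mu-opioid receptor HEK293 cell line | probe or stimulus = sequential submaximal and maximal DAMGO stimulation | compound dosing = one concentration per compound | measured by = Fluo4 Ca2+ flux fluorescence | evaluation = integrated fluorescence ratio relative to baseline, converted to per-well B score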
SKKanGAS inh = S. pyogenes SKKanGAS growth inhibitors in kanamycin, primary screen, streptokinase expression inhibitor project, SKKanGAS strain, BacTiter-Glo luminescence | 6 h | inhibition, % at 7.5 µM | 300,000 compounds, 1.3% hits | AID 1662, 2009;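 active means mean replicate score, as percent of positive control median, at least 50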;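 further: strain carries kanamycin resistance gene driven by streptokinase promoter and grows in 40 µg/ml kanamycin; loss of luminescence reflects streptokinase promoter inhibition or plain growth inhibition; 0% = median of DMSO wells and 100% = positive control at its reference dose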
IEC-6 tox = cytotoxicity in IEC-6 intestinal epithelial cells, primary screen, cytotoxicity control for KLF5 inhibitor project, cell-based, luminescence | inhibition, % at 5 µM | 290,000 compounds, 0.78% hits | AID 1825, 2009 | IEC-6 cytotoxicity, luminescence viability; in the data active means inhibition above about 22%;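 further: 0% = plate median of test compound wells and 100% = cytotoxic reference compound wells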
TRPC4 potent = positive allosteric modulators of TRPC4, primary screen, cell-based, mouse TRPC4beta, HEK293 mu-opioid, Fluo-4 calcium | Short transient receptor potential channel 4 (Mus musculus), Q9QUQ5 | DAMGO EC20, Fluo-4 Ca2+ flux; hits give high values | B-score at 10 µM | 310,000 compounds, 0.42% hits | AID 2227, 2009;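 active means B-score of calcium response area above 5 SD of library B-scores, with initial fluorescence ratio within 5 SD of library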;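 further: B-score of integrated fluorescence ratio over time as area under calcium response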
TRPC6 inhibitor = mouse TRPC6 channel inhibitors, primary screen, cell-based, HEK293, membrane potential dye; Short transient receptor potential channel 6 (Mus musculus), Q61143; ACh-evoked depolarization; hits give low values; B-score at 10 µM; 310,000 compounds, 1.1% hits; AID 2553, 2010;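 active means B-score under library mean minus 3 SD, initial fluorescence not abnormally high, positive integrated signal ratio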;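 further: B-score derived from integrated fluorescence ratio over the kinetic read; more negative B-score means stronger inhibition of depolarization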
KLF5 inhibitor = KLF5 expression inhibitors, primary screen, DLD-1 cells, luminescence | DLD-1 KLF5 promoter-luciferase reporter | inhibition, % at 5 µM | 290,000 compounds, 0.23% hits;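 active means inhibition above a per-plate limit of that plate's mean compound inhibition plus 3 SD, cut at about 60% in these data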;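 further: 0% = DMSO wells and 100% = LY294002 at 200 µM; higher means less KLF5 promoter-driven luciferase light; inactives centre near -14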
aSyn UTR inh = MLPCN primary screen, SNCA 5' untranslated region; alpha-synuclein 5'UTR reporter, inhibitor activity; inhibition, % (tested at 7.5 µM); 300,000 compounds, 0.82% hits; AID 1813, 2009; in the data active means inhibition above about 60%;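 further: H4 neuroglioblastoma cells stably carrying SNCA 5'UTR luciferase fusion; 0% = DMSO wells and 100% = positive control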
* = called active by the depositor; i = inactive; / = no result given; & = joins results of further samples. A portion of the library; the hit share may differ from the screen's.

1) N[C@@H](Cc1cc(Br)c(O)c(Br)c1)C(=O)O
2) CCOc1ccc(Cc2c(O)[nH]c(=O)[nH]c2=O)cc1
3) O=c1[nH]c(O)c(C=NC2CCN(Cc3ccccc3)CC2)c(=O)[nH]1
4) CCOc1ccccc1-n1c(O)c(C=Nc2c(C)n(C)n(-c3ccccc3)c2=O)c(=O)[nH]c1=O
5) C[C@]12CC[C@@H](O)C[C@@H]1CC[C@@H]1[C@@H]2CC[C@]2(C)[C@@H](O)CC[C@@H]12
6) COc1cccc(CN2CCN(C(=O)COc3ccc4ccccc4c3)CC2)c1

compound no.	1	2	3	4	5	6
MrgX1 antagonist	i	i	i	i	i	i
TRPC4 act	i	i	i	i	i	i
TRPC6 activator	i	i	i	i	i	i
TRPC4 block	i	i	i	i	i	i
SKKanGAS inh	1.7	-0.6	-6.3	5.3	-3.6	-1.8
IEC-6 tox	3.0	-1.0	-2.9	-1.1	-8.6	2.0
TRPC4 potent	i	i	i	i	i	i
TRPC6 inhibitor	i	i	i	i	i	i
KLF5 inhibitor	-3.0	-30.0	23.0	-15.9	-32.5	3.2
aSyn UTR inh	5.7	-2.7	20.6	27.4	7.7	19.8

Structural class, those above containing an NH in an aromatic ring
2) CCOc1ccc(Cc2c(O)[nH]c(=O)[nH]c2=O)cc1
3) O=c1[nH]c(O)c(C=NC2CCN(Cc3ccccc3)CC2)c(=O)[nH]1
4) CCOc1ccccc1-n1c(O)c(C=Nc2c(C)n(C)n(-c3ccccc3)c2=O)c(=O)[nH]c1=O

compound no.	2	3	4
MrgX1 antagonist	i	i	i
TRPC4 act	i	i	i
TRPC6 activator	i	i	i
TRPC4 block	i	i	i
SKKanGAS inh	-0.6	-6.3	5.3
IEC-6 tox	-1.0	-2.9	-1.1
TRPC4 potent	i	i	i
TRPC6 inhibitor	i	i	i
KLF5 inhibitor	-30.0	23.0	-15.9
aSyn UTR inh	-2.7	20.6	27.4

Other structures.
7) O=c1[nH]c(=O)n(Cc2ccco2)c(O)c1C=NCc1ccc2c(c1)OCO2
8) C[N+]1(C)CCN(c2ccccc2)CC1
9) O=C1c2ccccc2C(=O)N1Cc1nc2ccccc2c(=O)n1-c1cccnc1
10) NCCc1ccc(O)cc1
11) CC(=O)OC1N=C(c2ccccc2)c2ccccc2NC1=O (stereo unspecified)
12) Cc1c(N=Cc2c(O)n(CCc3ccccc3)c(=O)[nH]c2=O)c(=O)n(-c2ccccc2)n1C

compound no.	7	8	9	10	11	12
MrgX1 antagonist	i	i	i	i	i	i
TRPC4 act	i	i	i	i	i	i
TRPC6 activator	i	i	i	i	i	i
TRPC4 block	i	i	i	i	i	i
SKKanGAS inh	5.5	-0.3	-3.5	3.5	5.9	-2.3
IEC-6 tox	0.1	-4.1	-2.2	-0.3	2.2	-0.9
TRPC4 potent	i	i	i	i	i	i
TRPC6 inhibitor	i	i	i	i	i	i
KLF5 inhibitor	21.4	-28.1	-15.1	-7.8	-12.6	-24.1
aSyn UTR inh	-4.2	10.0	-5.8	7.9	23.0	-4.7

13) COc1ccc(CC2c3cc(OC)c(OC)cc3CCN2C)cc1OC (stereo unspecified)
14) CN1CCc2cc(O)cc3c2[C@H]1Cc1ccc(O)c(O)c1-3
15) Clc1cnc(Oc2ccc(Oc3ncc(Cl)cc3Cl)cc2)c(Cl)c1
16) CCOC(=O)[C@]1(C#N)[C@@H]2C=CC(C(C)=O)=CN2[C@@H](C(N)=O)[C@@H]1c1ccsc1
17) CCCCSP1(=S)NCCCN1
18) CC1C(C)N1CC(O)Cn1ccnc1[N+](=O)[O-] (stereo unspecified)

compound no.	13	14	15	16	17	18
MrgX1 antagonist	i	i	i	i	i	i
TRPC4 act	i	i	i	i	i	i
TRPC6 activator	i	i	i	i	i	i
TRPC4 block	i	i	i	i	i	i
SKKanGAS inh	1.8	-2.4	-2.1	2.8	-2.5	1.1
IEC-6 tox	-2.8	/	-0.8	2.8	-0.5	2.1
TRPC4 potent	i	i	i	i	i	i
TRPC6 inhibitor	i	i	i	i	i	i
KLF5 inhibitor	-39.8	/	-19.7	-20.3	-35.0	-5.0
aSyn UTR inh	-1.9	-25.7	25.4	7.3	8.3	3.3

19) CCC1C2CC3C4N(C)c5ccccc5C45CC(C2C5O)N3[C@@H]1O (stereo partly specified)
20) CC(=O)NCCc1c[nH]c2ccccc12
21) COc1ccc(-n2c(SC)nc3ccccc3c2=O)cc1
22) c1ccc(Cn2ccnc2)cc1
23) CCOc1ccccc1-n1c(O)c(C=Nc2ccc(N(CC)CC)cc2)c(=O)[nH]c1=O
24) NCCCN1CCN(c2ccccc2)CC1

compound no.	19	20	21	22	23	24
MrgX1 antagonist	i	i	i	i	i	i
TRPC4 act	i	i	i	i	i	i
TRPC6 activator	i	i	i	i	i	i
TRPC4 block	i	i	i	i	i	i
SKKanGAS inh	-0.1	0.7	-0.5	0.2	1.2	-4.9
IEC-6 tox	13.1	-8.9	1.1	-2.8	-3.5	-3.5
TRPC4 potent	i	i	i	i	i	i
TRPC6 inhibitor	i	i	i	i	i	i
KLF5 inhibitor	-22.9	-18.9	5.3	-9.2	-4.7	-13.0
aSyn UTR inh	9.9	-0.4	32.8	11.3	-65.5	-8.0

The closing four entries of the section before lead into the next.
21) COc1ccc(-n2c(SC)nc3ccccc3c2=O)cc1
22) c1ccc(Cn2ccnc2)cc1
23) CCOc1ccccc1-n1c(O)c(C=Nc2ccc(N(CC)CC)cc2)c(=O)[nH]c1=O
24) NCCCN1CCN(c2ccccc2)CC1
25) C#CCN(C)[C@H](C)Cc1ccccc1
26) c1ccc2c(c1)OCC(C1=NCCN1)O2 (stereo unspecified)
27) COc1ccc(C2SCC(=O)Nc3c2c(=O)[nH]n3C2CCCCCC2)cc1 (stereo unspecified)
28) Oc1ccc2c3c1O[C@H]1c4[nH]c5ccccc5c4C[C@@]4(O)C(C2)N(CC2CC2)CC[C@]314
29) CC(C)[C@@]1(NC(=O)[C@@H]2C[C@@H]3c4cccc5[nH]cc(c45)C[C@H]3N(C)C2)O[C@@]2(O)[C@@H]3CCCN3C(=O)[C@H](Cc3ccccc3)N2C1=O
30) CC(=O)[C@H]1CC[C@H]2[C@@H]3CC[C@H]4C[C@H](O)CC[C@]4(C)[C@H]3C(=O)C[C@]12C

compound no.	21	22	23	24	25	26	27	28	29	30
MrgX1 antagonist	i	i	i	i	i	i	i	i	i	i
TRPC4 act	i	i	i	i	i	i	i	i	i	i
TRPC6 activator	i	i	i	i	i	i	i	i	i	i
TRPC4 block	i	i	i	i	i	i	i	i	i	i
SKKanGAS inh	-0.5	0.2	1.2	-4.9	2.1	-1.8	-0.6	-6.6	11.1	-0.4
IEC-6 tox	1.1	-2.8	-3.5	-3.5	-2.5	-5.2	-2.3	-5.4	-2.2	3.0
TRPC4 potent	i	i	i	i	i	i	i	i	i	i
TRPC6 inhibitor	i	i	i	i	i	i	i	i	i	i
KLF5 inhibitor	5.3	-9.2	-4.7	-13.0	-18.3	-11.9	-25.7	-22.2	-9.1	16.6
aSyn UTR inh	32.8	11.3	-65.5	-8.0	13.4	-11.7	15.9	-18.1	-6.6	12.2

31) CCOC(=O)c1ccc2[nH]c(-c3ccc(S(=O)(=O)F)cc3)cc(=O)c2c1
32) COc1cccc(-n2c(O)c(C=NCCN3CCOCC3)c(=O)[nH]c2=O)c1
33) CC(NC(C)(C)C)C(=O)c1cccc(Cl)c1 (stereo unspecified)
34) O=C(COc1ccc2ccccc2c1)N1CCN(C2CCN(Cc3ccccc3)CC2)CC1
35) CCN1C[C@@]2(COC)C3[C@@H](OC)[C@H]4[C@@H]1[C@@]3(C1C[C@@]3(O)[C@H](OC(=O)c5ccccc5)C1[C@]4(OC(C)=O)[C@@H](O)[C@H]3OC)[C@@H](OC)C[C@H]2O (stereo partly specified)
36) Cc1ccc(-n2c(O)c(C=NCCN3CCOCC3)c(=O)[nH]c2=O)cc1
37) OCCOCC#CCN1CCOCC1
38) C=C1CC[C@@]2(O)[C@H]3Cc4ccc(O)c5c4[C@@]2(CCN3CC2CC2)[C@H]1O5
39) CN[C@@H]1C[C@@H](c2ccc(Cl)c(Cl)c2)c2ccccc21

compound no.	31	32	33	34	35	36	37	38	39
MrgX1 antagonist	i	i	i	i	i	i	i	i	i
TRPC4 act	i	i	i	i	i	i	i	i	i
TRPC6 activator	i	i	i	i	i	i	i	i	i
TRPC4 block	i	i	i	i	i	i	i	i	i
SKKanGAS inh	10.0	-11.7	0.7&-2.7	1.9	-2.3	-2.3	-3.4	-3.4	8.9
IEC-6 tox	-4.0	-10.1	-4.7	0.3	/	-5.5	2.4	-1.7	5.1
TRPC4 potent	i	i	i	i	i	i	i	i	i
TRPC6 inhibitor	i	i	i	i	i	i	i	i	i
KLF5 inhibitor	-14.4	-4.6	-15.9	1.0	/	-1.0	-25.5	-20.4	-5.1
aSyn UTR inh	5.3	-0.7	8.3&-15.2	16.1	-9.3	9.7	-29.5	2.7	25.8
